# Marburg entry inh = qHTS for inhibitors of binding or entry into cells for Marburg Virus; Marburg virus pseudotyped entry inhibition, cell reporter; control for the full effect not named in the record; about a third of the inactives were read at about 46 µM; Potency, µM (titrated, usually from 37.8 µM), for the others: top-dose activity change, negative = inhibition, usual class: inhibitors; 1.8% of 300,000 active; active = well fitted inhibition curve with a large enough effect; inconclusive = small, poorly fitted or top-dose-only effect, or effect the other way; inactive = flat fitted curve, though single readings scatter; tested in HEK293 cells; about a fifth of its hits are not listed in these tables; also: % is scaled to controls: 0 for no effect and ±100 for the full control effect; luciferase read-out
# StopGo reporter = High Throughput Screening for Foot and Mouth Disease Virus Antivirals; human cells with a luciferase reporter of 2A StopGo recoding; control for the full effect not named in the record; Potency, µM (doses to about 57.9 µM), inactives show top-dose signal change, negative = less light; 1.2% of 410,000 active; active = well fitted falling curve with a large enough effect; inconclusive = small, poorly fitted or top-dose-only effect; inactive = no such curve, though single readings can be large or run the other way; tested in HEK293T cells; also: % is scaled to controls: 0 for no effect and ±100 for the full control effect; nearly all actives have a fitted effect of over 45% in size; luciferase light after 4 h
# Cruzain Triton = qHTS Assay for Promiscuous and Specific Inhibitors of Cruzain (with detergent) | 0.43% of 200,000 active | Potency, µM, for the others: max response, negative = inhibition, actives largely listed as inhibitors | Cruzipain (Trypanosoma cruzi), P25779 | purified cruzain, Z-FR-AMC fluorescence, 0.01% Triton | AID 1478, 2009;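 also: plate controls were neutral wells for no effect and buffer without enzyme for full effect; nearly all actives have a fitted effect of over 40% in size; top concentration of the series not given in the record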
# Target sequence (P25779 123-467 limits assumed): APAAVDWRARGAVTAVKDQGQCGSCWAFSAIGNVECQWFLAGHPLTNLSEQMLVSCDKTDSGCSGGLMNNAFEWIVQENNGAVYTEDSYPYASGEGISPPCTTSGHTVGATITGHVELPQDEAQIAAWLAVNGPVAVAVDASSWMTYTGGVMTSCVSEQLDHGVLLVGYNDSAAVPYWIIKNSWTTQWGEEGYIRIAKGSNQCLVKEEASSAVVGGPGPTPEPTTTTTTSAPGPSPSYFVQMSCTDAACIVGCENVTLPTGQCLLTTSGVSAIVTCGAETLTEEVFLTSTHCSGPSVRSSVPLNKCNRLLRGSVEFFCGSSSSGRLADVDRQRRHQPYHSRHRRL
#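 15 min RT preincubation of 1.5 nM cruzain with compound, then 2 uM Z-FR-AMC added; kinetic AMC fluorescence, 60 s delta. Triton X-100 0.01%, pH 5.5.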
# RE007 growth inh = qHTS Assay for Inhibitors of the HIV-1 protein Vpr. S. pombe RE007 Vpr strain, BacTiter-Glo ATP luminescence, 24 h; control for the full effect not named in the record. Potency, µM (series often up to 92.2 µM), without a hit: at the highest dose activity change, negative = less growth. 0.21% of 360,000 active; active = well fitted falling curve with a large enough effect; inconclusive = small, poorly fitted or top-dose-only effect; inactive = no such curve, though single readings can be large or run the other way;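 also: % is scaled to controls: 0 for no effect and ±100 for the full control effect; nearly all actives have a fitted effect of over 50% in size; the assay follows cell death caused by Vpr and the record does not say whether a fall means rescue or toxicity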
#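 Fission yeast RE007 carrying one integrated HIV-1 vpr copy, seeded at OD 0.01 in PMG+AL medium with 23 nL pinned compound. Grown 24 h at 30 degrees; viability read by BacTiter-Glo luminescence after 5 min.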
# NS1 function inh = qHTS Assay for Inhibitors of Influenza NS1 Protein Function; S. cerevisiae slowed by influenza A NS1, growth recovery by OD600; Potency, µM (doses to about 46.1 µM), without a hit: top-dose activity, positive = more growth; 0.4% of 270,000 active; AID 2326, 2010; active means well fitted rising curve with a large enough effect; inconclusive means small, poorly fitted or top-dose-only effect; inactive means no such curve, though single readings can be large or run the other way; also: nearly all actives have a fitted effect of over 50% in size
#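 S. cerevisiae expressing influenza A NS1, grown in glucose, washed, then diluted 1:100 into pH 6.0 -URA galactose medium with 23 nl compound. Growth recovery read as OD600; NS1-free strain serves as control.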
# SARS PLpro yeast = qHTS of Yeast-based Assay for SARS-CoV PLP; S. cerevisiae expressing SARS-CoV PLpro, growth rescue; control for the full effect not named in the record; Potency, µM (highest dose often 32.9 µM), for the others: at the top dose activity, positive = growth rescue; 0.19% of 330,000 active; active means well fitted rising curve with a large enough effect; inconclusive means small, poorly fitted or top-dose-only effect; inactive means no such curve, though single readings can be large or run the other way; also: 0% is about no effect; nearly all actives have a fitted effect of over 55% in size; growth read by luminescence after 48 h
# Lassa entry inh = qHTS for Inhibitors of binding or entry into cells for Lassa Virus; Potency, µM (top dose mostly 37.9 µM), for the others: at the top dose activity change, negative = inhibition, most hits filed as inhibitors; 1.2% of 300,000 active; Lassa virus pseudotype entry inhibition, cell reporter; control for the full effect not named in the record; active means well fitted inhibition curve with a large enough effect; inconclusive means small, poorly fitted or top-dose-only effect, or effect the other way; inactive means flat fitted curve, though single readings scatter; tested in HEK293 cells; also: % is scaled to controls: 0 for no effect and ±100 for the full control effect; nearly all actives have a fitted effect of over 50% in size; luciferase read-out
# Cruzain noTriton = qHTS Assay for Promiscuous and Specific Inhibitors of Cruzain (without detergent) | 2.3% of 200,000 active | AID 1476, 2009 | Potency, µM, for inactives: max response, negative = inhibition, usual class: inhibitors | purified cruzain, Z-FR-AMC fluorescence, no detergent | Cruzipain (Trypanosoma cruzi), P25779;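 also: plate controls were enzyme without inhibitor for no effect and buffer without enzyme for full effect; nearly all actives have a fitted effect of over 40% in size; top concentration of the series not given in the record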
#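 Purified cruzain at 1.5 nM, pre-incubated 15 min with compound at room temperature in 100 mM sodium acetate pH 5.5, 5 mM DTT, 0.00005% Triton X-100. Reaction started with 2 uM Z-FR-AMC; AMC fluorescence increase over 60 s gives rate.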
# Active calls of the source: *; ? = inconclusive; · = not tested or not shown; & = joins results of further samples; [ ] = remark or other dose. Unless noted, calls follow the shape of the dose curve; as a rule, active = well fitted curve in the direction sought with a large enough effect; inconclusive = small, poorly fitted or top-dose-only effect, or another doubt; inactive = no such curve, though single readings can be large; an effect the other way counts as inactive or inconclusive. Potency is read from the fitted curve at half-maximal effect. An unsorted share of the library. Share with any hit: about 4.6%.
SMILES,Marburg entry inh,StopGo reporter,Cruzain Triton,RE007 growth inh,NS1 function inh,SARS PLpro yeast,Lassa entry inh,Cruzain noTriton
CCN(CC)S(=O)(=O)c1ccc(Oc2cccc(C(C)=O)c2)nc1,18.7%,-27.5%,2.7%,21.6%,?,0.7%,-19.3%,2.2%
CC(=O)Oc1cccc(N2C(=O)C3C4C=CC(C4=C(C)C)C3C2=O)c1 (stereo not given),-11.4%,-13.3%,3.0%,35.5µM*,-100.9%,-18.1%,20.9%,6.1%
CCN1CCN(c2nc3ccccc3nc2C(C#N)S(=O)(=O)c2ccc(C)cc2)CC1 (stereo not given),2.5%,14.7%,-0.4%,16.0%,-19.9%,-1.5%,-10.8%,?
CCNc1c(NC(=O)c2ccccc2OCC)c(=O)oc2ccccc12,4.7%[46.1 µM],-2.5%,-1.6%,·,·,·,-11.1%[46.1 µM],19.3%
O=C(CSc1nc2ccccc2[nH]1)NC1CCCC1,-1.1%,17.5%,·,5.1%,·,0.8%,16.2%,·
S=C(NCc1ccccc1)N1CCn2cccc2C1c1ccncc1 (stereo not given),-48.0%[46.1 µM],-28.0%,·,-10.6%,·,-0.5%,12.3%[46.1 µM],·
Cc1ccc2nc(-c3ccc(SCC(=O)N4CCc5ccccc54)nc3)[nH]c2c1,7.0%,10.3%,-9.7%,-2.3%,16.5%,-5.5%,?,?
CCn1c(=O)cc(OCC(=O)Nc2ccc(C)cn2)c2ccccc21,26.6%,53.8%[activator],-1.8%,-1.4%,-6.6%,-5.5%,-8.9%,10.3%
CCC(=O)N(CCc1ccccc1)Cc1cc2cc(OC)ccc2[nH]c1=O,·,-24.5%,·,-1.1%,-66.1%,2.0%,·,·
COc1ccc(/C=C(\NC(=O)c2cccs2)C(=O)NCc2ccco2)cc1OC,-14.4%,36.7%[activator],·,7.8%,-12.9%,0.5%,4.6%,·
COc1ccccc1/C=N/NC(=O)c1ccc(CN2C(=O)c3cccc4cccc2c34)cc1,26.4%[46.1 µM],-23.1%,·,0.7%,0.0%,-2.0%,-13.7%,·
Cc1c(-c2cccc(NC(=O)c3ccc(F)c(F)c3)c2)nc2ncccn12,·,8.6%,-12.5%,·,·,·,13.8%[46.1 µM],28.3%
Cc1ccc(S(=O)(=O)NCC(=O)OCN2C(=O)c3ccccc3C2=O)cc1,?,-4.7%,22.4µM*,-28.5%,-10.0%,-6.0%,-1.6%,25.1µM*
N#C/C(=C(/O)CSc1ncn[nH]1)c1nc2ccccc2[nH]1,·,-9.6%,·,-14.9%,6.1%,-1.4%,·,·
CCCS(=O)(=O)c1nc(S(=O)(=O)c2ccc(C)cc2)c(N2CCN(C)CC2)s1,·,0.1%,·,6.7%,11.7%,-0.4%,·,·
NS(=O)(=O)c1ccc(CCNCc2ccccc2OCc2ccc(Cl)cc2)cc1,?,-24.9%,·,-6.6%,5.0%,1.0%,?,·
C=CCNC(=O)c1ccc(-c2nc(-c3ccc(Cl)cc3Cl)cs2)cc1,1.3%,-14.4%,3.5%,5.2%,12.7%,-6.2%,0.5%,-14.9%
CC(=O)c1c(C)[nH]c(C(=O)OCC(=O)Nc2ccc([N+](=O)[O-])cc2Cl)c1C,10.4%,-18.7%,-1.9%,-13.6%,7.3%,-2.1%,-3.3%,-0.8%
CCCCCCCCCOC(=O)C(CC(=O)O)N1CCOCC1 (stereo not given),11.3%,-20.1%,-3.4%,-19.3%,-84.0%,-21.8%,-1.8%,?
CC(O)(CS(=O)(=O)Cc1ccccc1Cl)C(=O)Nc1cccc(C(F)(F)F)c1 (stereo not given),8.1%,-16.1%,1.4%,-9.9%,-3.5%,1.8%,18.1%,4.4%
S=c1c2[nH]cnc2ncn1CCSc1ncnc2nc[nH]c12,0.5%,3.1%,2.8%,5.4%,-2.8%,·,17.8%[46.1 µM],7.7%
COc1ccc(N(C(=O)c2ccccc2C)S(=O)(=O)c2ccc(C)cc2)cc1,·,2.3%,-6.6%,·,·,·,?,-6.7%
Cc1cc(=O)n2[nH]c(-c3sccc3-n3c(C)ccc3C)cc2n1,3.0%&3.0%[46.1 µM],-18.4%,·,-1.0%,·,2.2%,7.1%,·
CCOC(=O)c1sc(C)c2c1NC(C)(c1ccccc1)NC2=O (stereo not given),-15.0%,-25.4%,-3.4%,2.9%,-0.8%,10.0%,-24.7%,-11.1%
CCc1noc(C)c1C(=O)NNC(=O)c1ccccc1F,?,9.3%,·,6.0%,·,0.5%,?,·
CCOc1ccc(NC(=O)c2cc([N+](=O)[O-])ccc2N2CCOCC2)cc1,?,6.4%,·,9.6%,·,2.3%,-19.7%,·
O=c1cnc2ccccc2n1CC1CCCCC1,3.0%,·,-1.4%,10.2%,-14.1%,-1.0%,-11.0%,3.4%
COc1ccc(C2CC(c3ccc(Cl)cc3Cl)Nc3nc(N)nn32)cc1OC (stereo not given),-25.6%,?,-1.1%,-3.9%,-0.9%,-6.9%,-12.2%,?
Cc1ccc(C(C(=O)NC2CCCC2)N(Cc2ccco2)C(=O)CCC(=O)Nc2cc(C)on2)cc1 (stereo not given),26.2%,-19.6%,-2.8%,24.4%,-8.0%[9.22 µM],?,11.6%,?
CCOC(=O)C1C(=O)C=C(c2ccc(C)cc2)CC1c1ccco1 (stereo not given),12.8%,0.4%,-28.0%,-20.2%,-48.4%,-20.5%,-15.8%,-28.4%
O=C(Nc1nnc(C2CC2)s1)c1cc2c(s1)CCCCCC2,·,·,6.1%,·,-1.8%,-4.9%,·,6.31µM*
COc1ccc(NC(=O)c2ccccc2SC)c(OC)c1,14.2%[46.1 µM],5.4%,·,-3.4%,-5.8%,0.5%,16.4%[46.1 µM],·
C=CCn1c(CSCc2ccc(C)cc2)nnc1SCC(=O)NCc1ccccc1,?,-16.1%,-9.3%,-1.2%,-1.8%,6.8%,0.0%,23.5%
NC(=O)c1ccc(NC(=O)COC(=O)c2ccc(Br)c(S(=O)(=O)N3CCOCC3)c2)cc1,-22.7%,-17.3%,·,10.0%,·,·,13.5%,·
Cc1ccc(C2CC(c3cccs3)=NN2C(=O)c2ccc(Br)o2)cc1 (stereo not given),?,-23.7%,-9.4%,-0.8%,16.7%,-20.5%,?,7.94µM*
O=C(OCN1C(=O)C(=O)c2ccccc21)c1ccc(Cl)cc1,·,-8.5%,·,2.7%,-32.8%,-17.8%,·,·
COc1c(C)cc(C(=O)C2CCCN(C(=O)c3ccoc3)C2)cc1C (stereo not given),25.7%[46.1 µM],-0.5%,·,9.0%,1.4%,-1.8%,-3.6%[46.1 µM],·
COc1ccc(S(=O)(=O)N2CCC(C(=O)NCC(=O)Nc3c(C)cccc3C)CC2)cc1OC,-0.3%,-12.6%,·,1.2%,·,·,26.1%,·
COc1ccc(CCNC(=O)c2cnc3sc(N4CCOCC4)nn3c2=O)cc1,23.5%[46.1 µM],0.0%,-1.9%,·,·,·,·,0.8%
O=C(Nc1nc2ccc([N+](=O)[O-])cc2s1)c1c(F)cccc1F,-15.7%,17.7%,·,-6.6%,-0.7%,0.0%,16.1%,·

# The closing two records of the part above are carried over, then new ones follow:
SMILES,Marburg entry inh,StopGo reporter,Cruzain Triton,RE007 growth inh,NS1 function inh,SARS PLpro yeast,Lassa entry inh,Cruzain noTriton
COc1ccc(CCNC(=O)c2cnc3sc(N4CCOCC4)nn3c2=O)cc1,23.5%[46.1 µM],0.0%,-1.9%,·,·,·,·,0.8%
O=C(Nc1nc2ccc([N+](=O)[O-])cc2s1)c1c(F)cccc1F,-15.7%,17.7%,·,-6.6%,-0.7%,0.0%,16.1%,·
CCc1nn(CC(=O)Nc2ccc(N(CC)CC)cc2C)c(=O)c2cc3sccc3n12,11.1%[46.1 µM],-14.3%,-2.4%,·,·,·,·,-0.3%
CSc1nc(C)cc(Oc2ccc(OCC(N)=O)nn2)n1,-1.9%,-4.4%,·,4.9%,·,2.8%,-18.4%,·
CC(=O)c1c(C)[nH]c(C(=O)CSc2nc3ccccc3c(=O)n2CCCN2CCOCC2)c1C,20.6µM*,-16.9%,-2.7%,-0.8%,-11.0%,-3.2%,-3.4%,-4.1%
CCOC(=O)Cc1cc(=O)n2[nH]cc(-c3cccc(Br)c3)c2n1,6.0%[46.1 µM],-16.8%,·,-0.2%,6.6%,-0.5%,3.0%,·
O=C(CN1C(=O)COc2ccccc21)N1CCOCC1,·,-17.9%,·,-13.4%,-8.8%,-2.0%,·,·
Cc1ccc(C2CC2C(=O)NNC(=S)Nc2cccc(Cl)c2)cc1 (stereo not given),-25.2%,-12.6%,-5.0%,8.5%,-25.8%,14.1µM*,?,16.5%
O=C(C1CCCN(S(=O)(=O)c2cccc3cccnc23)C1)N1CCc2ccccc21 (stereo not given),0.6%,?,-0.3%,-3.7%,-3.5%,-0.7%,·,?
Cc1cc(C)n(CC(C)NCc2cn[nH]c2-c2cccc3ccccc23)n1 (stereo not given),·,-24.0%,·,12.5%,2.3%,0.6%,·,·
Cc1ccc(NC(=O)c2c(C)oc3ccc(O)c(CN4CCCCC4)c23)c(C)c1,?,-22.9%,-6.2%,·,·,·,-2.6%[46.1 µM],-7.5%
Cc1ccc2c(n1)sc1c(N)ncnc12,?,-10.7%,-7.1%,34.7%,-47.9%,-0.9%,16.7%,10.5%
COc1ccccc1N1CCN(C(=O)c2ccccc2SCC(=O)NCc2ccco2)CC1,?,3.7%,·,2.4%,·,-2.0%,18.4%,·
Cc1ccc(NC(=O)CSc2nnc(CN3CCOCC3)n2-c2ccccc2)cc1,6.0%,14.1%,2.8%,1.4%,-8.5%,15.6%,?,?
CCc1ccc(OCC(=O)NC(C)C)cc1,27.7%[46.1 µM],10.9%,·,-7.2%,-0.1%,-0.6%,5.5%[46.1 µM],·
CCc1nnc(NC(=O)CSc2ccc(-c3nc4ccc(C)cc4[nH]3)cn2)s1,-23.7%,11.4%,-8.2%,4.3%,19.2%,-4.7%,?,-21.9%
